# RE007 growth inh = less growth of the S. pombe RE007 Vpr strain; S. pombe RE007 Vpr strain, BacTiter-Glo ATP luminescence, 24 h; control for the full effect not named in the record; Potency, µM (doses to about 92.2 µM), without a hit: at the highest dose activity change, negative = less growth; actives 0.21% (n = 360,000); AID 651644; active = well fitted falling curve with a large enough effect; inconclusive = small, poorly fitted or top-dose-only effect; inactive = no such curve, though single readings can be large or run the other way;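 also: nearly all actives have a fitted effect of over 50% in size; the assay follows cell death caused by Vpr and the record does not say whether a fall means rescue or toxicity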
#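 Fission yeast RE007 carrying one integrated HIV-1 vpr copy, seeded at OD 0.01 in PMG+AL medium with 23 nL pinned compound. Grown 24 h at 30 degrees; viability read by BacTiter-Glo luminescence after 5 min.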
# 2A StopGo = lowers the luciferase signal of an FMDV 2A StopGo reporter; human cells with a luciferase reporter of 2A StopGo recoding; control for the full effect not named in the record; AID 1159524; Potency, µM (doses to about 57.9 µM), for the others: at the highest dose signal change, negative = less light; actives 1.2% (n = 410,000); active = well fitted falling curve with a large enough effect; inconclusive = small, poorly fitted or top-dose-only effect; inactive = no such curve, though single readings can be large or run the other way; tested in HEK293T cells; also: nearly all actives have a fitted effect of over 45% in size; luciferase light after 4 h
# * = called active by the depositor; ? = inconclusive; [ ] = another dose, or the depositor's remark. % is scaled to controls: 0 for no effect and ±100 for the full control effect; potency is read from the fitted curve at half-maximal effect. Not all compounds are listed; count on the stated rates, not on these rows.
Molecule	RE007 growth inh	2A StopGo
COCC1CCN(C(=O)c2cc(COc3ccc(OC)cc3Cl)on2)C1 (stereo not drawn)	11.0%	40.8%[activator]
C[C@@H]1CN([C@H](C)CO)S(=O)(=O)c2ccc(C#Cc3ccccc3)cc2O[C@@H]1CN(C)C(=O)CN(C)C	4.2%	-20.7%
CCOC(=O)C1=C(C)N(C)C(=O)NC1c1cccc([N+](=O)[O-])c1 (stereo not drawn)	-2.4%	-16.6%
Clc1ccc2c(c1)C1CC2CCN1Cc1ccccc1 (stereo not drawn)	-13.8%	-9.1%
COC(=O)[C@]12CCCCC=C1N(Cc1ccccc1)C(=O)[C@H](CC(=O)N1CCOCC1)C2	-1.9%	0.0%
COc1ccc(NC2CCCN(C(=O)C3=NNC(=O)CC3)C2)cc1 (stereo not drawn)	10.2%	-16.1%
Cc1ccc([C@H]2N[C@]3(CCCN(Cc4ccc(F)cc4)C3=O)[C@H]3C(=O)N(Cc4ccccc4)C(=O)[C@@H]23)cc1	-7.6%	0.0%
COc1c(Cl)cc(C(=O)O)cc1Cl	1.7%	-6.4%
CC1(C)CC(=O)C=C(c2ccc3c(c2)OCO3)C1	-12.4%	18.1%
Cc1c(NS(=O)(=O)c2ccc(C(=O)N(C)Cc3cccc(Cl)c3Cl)cc2)c(=O)n(-c2ccccc2)n1C	-10.3%	10.4%
CCC(=NNc1ccc([N+](=O)[O-])cc1[N+](=O)[O-])c1ccccc1	-7.2%[18.4 µM]	-22.6%
CCOC(=O)C1(C)CCN1C(=O)c1ccc(OC)c(OC)c1 (stereo not drawn)	0.9%[18.4 µM]	-1.5%

Molecule	RE007 growth inh	2A StopGo
Cc1nc2ccc(C(=O)N(C)Cc3ccccc3)cn2c1N(C)C(=O)CCc1ccccc1	-10.9%	22.0%
NC(=O)C1CCN(C(=O)c2ccc(Cl)c(S(=O)(=O)N3CCc4ccccc43)c2)CC1	5.7%	0.0%
CN(c1ccc(Cl)cc1)c1cc2c(c3c1ccn3C)C1CCC2C1 (stereo not drawn)	-4.8%	-16.8%
CC1(Oc2ccc(F)cc2)CCN(Cc2ccccc2OC(F)F)C1 (stereo not drawn)	-10.0%	-21.8%
CCCCNC(=O)c1nc(C2CCN(S(=O)(=O)c3ccc(S(C)(=O)=O)cc3)CC2)oc1-c1ccccc1	-2.2%	-18.4%
COc1ccc(NC(=O)c2ccc(NC(=O)CN3CCN(c4ccc(O)cc4)CC3)cc2)cc1	1.9%	-8.3%
CC(C)(C)C(c1nc2ccccc2[nH]1)n1c(-c2ccsc2)nc2ccccc21 (stereo not drawn)	-19.9%	-2.9%
CC(=O)C[C@H]1c2cc(C(F)(F)F)ccc2S(=O)(=O)N1c1ccccc1	-5.2%	12.5%
CCCCNC(=O)C1(C)CCCCN1C(=O)c1oc2ccccc2c1C (stereo not drawn)	12.9%[18.4 µM]	-4.8%
N#CC1C(=O)NC(=O)C(C#N)C12CCCCC2 (stereo not drawn)	11.3%	-24.7%
CC(=O)Nc1ccc(C(=O)N2CCOCC2c2cc(C(=O)NCc3ccccc3)no2)cc1 (stereo not drawn)	2.9%	-11.3%
CCN1C[C@]2(CO)CC[C@H](OC)[C@@]34C5C[C@H]6[C@H](OC)C5[C@](O)(C[C@H]6OC)[C@@](O)(C(OC)C23)[C@@H]14 (stereo partly drawn)	5.7%	-7.5%

Molecule	RE007 growth inh	2A StopGo
COC(=O)c1ccc(CNC(=O)/C=C/[C@H]2O[C@@H](n3cc(C)c(=O)[nH]c3=O)C[C@@H]2O)cc1	12.0%	0.0%
Cc1c(C(=O)NCc2ccc([N+](=O)[O-])cc2)sc(=O)n1Cc1ccc(-c2ccccc2)cc1	6.9%[18.4 µM]	-24.8%
O=C(OCc1ccccc1)N1CCC2CC1c1cc(/C=C/CCCSc3ncccn3)ccc12 (stereo not drawn)	-1.6%	-4.7%
CCCCC[C@H](O)/C=C/C1C(=O)C=C[C@H]1C/C=C\CCCC(=O)OC (stereo partly drawn)	2.7%	25.1µM*
O=[N+]([O-])c1cc(-c2csc(NCCc3nc4cc(C(F)(F)F)ccc4n3CCCO)n2)ccc1Cl	6.6%	?
CN1CCN(C2CN(Cc3cn(Cc4ccc(F)cc4)nn3)S(=O)(=O)C2)CC1 (stereo not drawn)	-19.6%	-7.4%
CC12CCC(/C(=C/NNc3ccc([N+](=O)[O-])cc3[N+](=O)[O-])C1=O)C2(C)C (stereo not drawn)	?	?
O=C1c2cccc3cccc(c23)C(c2nc3ccccc3[nH]2)N1C1CC1 (stereo not drawn)	-14.4%	-19.9%
CCCNC(=O)c1cc(C2CCCCN2S(=O)(=O)Cc2cccc(C(F)(F)F)c2)on1 (stereo not drawn)	-6.5%	1.4%
COc1ccccc1NC(=O)/C(C#N)=C/c1cccn1C	-8.6%	30.0%[activator]
CN1C2CCC1CC(OC(=O)c1cccc(O)c1)C2 (stereo not drawn)	13.3%	-19.1%
COC(=O)[C@]12CCCCC=C1N(Cc1ccc3c(c1)OCO3)C(=O)[C@H](CC(=O)NCC13CC4CC(CC(C4)C1)C3)C2	0.6%	?

Molecule	RE007 growth inh	2A StopGo
COc1ccc(S(=O)(=O)NC(=O)C2(C)CCN2C(=O)COc2ccc(Cl)cc2)cc1 (stereo not drawn)	6.1%	-11.3%
CC1=CC2(C)NC(=O)C(C)C12 (stereo not drawn)	-17.7%	-16.3%
COc1ccc(N2CCN(C(c3ccccc3)c3nnnn3C(C)(C)C)CC2)cc1 (stereo not drawn)	0.9%	0.8%
Cc1cc(=O)n2c(nc3ccccc32)s1	-12.2%	33.1%[activator]
O=C(Nc1ccccc1)C1Cc2c(-c3ccccc3Oc3ccccc3)ccnc2O1 (stereo not drawn)	14.7%	?
O=C(Nc1nc(OCC(F)(F)F)cnc1/C=C\c1ccccc1)c1ccsc1	-9.0%	-9.2%
Cc1ccc(C(=O)Nc2ccccc2C(=O)N2CC(C)OC(C)C2)cc1 (stereo not drawn)	8.7%	-9.2%
Cc1ccc(Cl)cc1-c1cc(C(=O)NCc2ccccc2)[nH]n1	3.7%	-11.3%
COC(=O)C[C@@H]1CC[C@H](NC(=O)Cc2ccccn2)[C@@H](CO)O1	11.4%	-11.5%
CCc1nc2ccc(C(=O)N3CCN(C(C)=O)CC3)cn2c1N(CCC(C)C)CCN(C)C	-4.9%	-17.4%
O=C(/C=C1\OCc2ccccc21)OCc1ccccc1	-18.1%	40.0%[activator]
COC(C/C=C\C(=O)[C@H](C)OCc1ccccc1)OC	-8.5%	?

Molecule	RE007 growth inh	2A StopGo
Cc1noc(C)c1NC(=O)N(C)C[C@H]1OCCCC[C@@H](C)Oc2ccc(NS(=O)(=O)c3ccccc3)cc2C(=O)N([C@H](C)CO)C[C@@H]1C	4.7%	0.0%
Cc1ccc(CN2CCC[C@]3(N[C@H](c4ccccc4)[C@@H]4C(=O)N(C)C(=O)[C@@H]43)C2=O)cc1	-12.4%	-20.8%
C[C@@H]1CN([C@H](C)CO)C(=O)CCCn2nncc2CO[C@@H]1CN(C)S(=O)(=O)c1ccc2c(c1)OCCCO2	3.5%	-13.1%
Cc1cc(C)cc(CC(=O)N2CCC2(C)C(=O)NS(=O)(=O)c2ccccc2)c1 (stereo not drawn)	10.0%[18.4 µM]	-16.7%
CCOC(=O)[C@@H](NC(=O)CC[C@H]1O[C@@H](n2ccc(=O)[nH]c2=O)[C@H](O)[C@@H]1O)C(C)C	-2.8%	-22.3%
O=C(NCc1ccccc1)N1CCN(CCO)CC1	8.9%	-14.4%
CCOC(=O)C1(C)CCCN1C(=O)c1csnn1 (stereo not drawn)	11.4%	-1.3%
CC1(C(=O)NS(=O)(=O)c2ccc(Cl)s2)CCN1C(=O)Cc1ccccc1Cl (stereo not drawn)	-2.0%[18.4 µM]	-2.8%
CCOC(=O)c1cc2c(c(CCO)n1)[C@@H](CCO)N(S(=O)C(C)(C)C)C2 (stereo partly drawn)	-23.8%	-19.1%
CC1(C(=O)NS(=O)(=O)C2CC2)CCN(C(=O)c2cc(F)cc(F)c2)C1 (stereo not drawn)	7.3%[18.4 µM]	-2.9%
CN(C(=O)c1ccc(NC(=O)Cc2ccc(NC(=O)C3CCN(C(=O)C4CCC4)CC3)cc2)cc1)C1CCCC1	-0.8%	-18.0%
COc1cccc(CNc2nc3cc(-c4ccc(C(=O)N5CCN(C)CC5)cc4)sc3c(=O)n2C)c1	-28.3%	-19.1%

Molecule	RE007 growth inh	2A StopGo
Cc1ccc(S(=O)(=O)/N=C2\C=C(NS(=O)(=O)c3ccc(C)cc3)C(=O)c3ccccc32)cc1	15.6%	22.1%
CC(C)c1cccc(-c2csc(C(O)c3ccccc3)n2)c1 (stereo not drawn)	-0.3%[18.4 µM]	8.8%
C[C@H](CO)N1C[C@H](C)[C@H](CN(C)C(=O)Nc2ccc(-c3cccs3)cc2)OCc2cnnn2CCCC1=O	-11.0%	-15.1%
COc1ccc(CC(=O)N2CCC(C)(C(=O)NS(=O)(=O)C3CC3)C2)cc1OC (stereo not drawn)	-0.8%	-20.0%
O=C(NCCO)OC1CC2CC1[C@H]1CCCCN1C2=O (stereo partly drawn)	0.1%	-9.6%
O=C(CCCN1CCC(C(O)c2ccc(F)cc2)CC1)c1ccc(F)cc1 (stereo not drawn)	-10.5%[18.4 µM]	-21.0%
O=C(Nc1cccc2c1CCCC2)c1cc(C2CCCCN2S(=O)(=O)c2cccs2)on1 (stereo not drawn)	-8.4%	3.4%
Cc1ccc(C(=O)OCC(=O)Nc2ccc(C)c(S(=O)(=O)N3CCCCC3)c2)o1	5.1%	-19.7%
Cc1cccc(C)c1-n1nnnc1C1(C)CCC(=O)N1Cc1cccs1 (stereo not drawn)	14.7%	-2.6%
CCOC(=O)C1=CCN(S(=O)(=O)c2ccccc2C)C1c1ccc(Br)cc1 (stereo not drawn)	5.8%	-28.0%
O=C1CCC[C@@H]2Cc3nc4ccc(O)cc4cc3[C@@H]3CCN1[C@H]23	1.3%	6.0%
CC(=O)Nc1cccc(-c2ccnc3c2CC(C(=O)NCc2cccc(Cl)c2)O3)c1 (stereo not drawn)	6.2%	?

Molecule	RE007 growth inh	2A StopGo
O=C(Nc1ccc2c(c1)CN(C(=O)Nc1ccc(F)cc1)CC2)c1ccccn1	-9.8%	?
Cc1cc(OCc2cc(C(=O)NC(C)c3cnn(C)c3)no2)cc(C)c1Cl (stereo not drawn)	-19.8%	32.3%[activator]
O=C1NCCN(CC2CCN(CCc3ccc(Cl)c(Cl)c3)CC2)C1=O	-6.1%	-7.8%
COc1ccc([C@@H]2C[C@H]3[C@@H](CN2S(=O)(=O)c2ccccc2)C(=O)C[C@@H](c2ccccc2F)N3S(=O)(=O)c2ccc(C)cc2)cc1	-5.4%	-4.7%
CC(=O)Nc1cccc(-c2ccnc3c2CC(C(=O)Nc2cccc(NS(C)(=O)=O)c2)O3)c1 (stereo not drawn)	15.7%	-19.3%
CCN(CCN(C)C)C(=O)c1ccc2nc(C)c(N(C)C(=O)CCc3ccccc3)n2c1	1.9%[18.4 µM]	-1.2%
O=C(CS(=O)(=O)Cc1ccccc1)c1ccccc1	-12.4%	0.0%
CC1(c2nnnn2Cc2ccccc2)CCC(=O)N1Cc1cccc(C(F)(F)F)c1 (stereo not drawn)	12.0%	-11.6%
O=C1NC[C@H](CCCCN2C[C@H](Cc3ccc(O)cc3)N(CCc3ccccc3)C(=O)C2=O)N(CCc2ccc(O)cc2)C1=O	0.4%	-17.8%
COC(=O)/C=C1\OCc2cccc(C)c21	0.0%	0.3%
Cc1cccc(C)c1NC(=O)CNC(=O)c1ccc(N2CCOCC2)c([N+](=O)[O-])c1	-11.8%	-10.0%
COc1cccc(CN(C)C(=O)c2ccc(S(=O)(=O)Nc3cccc(C)c3C)cc2)c1OC	-23.4%	?

Molecule	RE007 growth inh	2A StopGo
CC(C)CNC(=O)C1Nc2ccc(C(F)(F)F)cc2C2C=CCC12 (stereo not drawn)	-8.6%	39.4%[activator]
FC(F)(F)c1ccccc1Cc1c(-c2ccc(Cl)cc2)nc2ccc(Br)cn12	38.3%	62.1%[activator]
COc1cc2c(cc1OC(C)=O)C(=O)CCCC2	0.9%[18.4 µM]	-6.9%
CCC1(c2ccccc2)CN(C)C1=O (stereo not drawn)	-2.4%	-21.9%
COC(=O)[C@@]12C[C@@H](CC(=O)N3CCCCC3)C(=O)N(Cc3cccc4ccccc34)C1=CCC(C)(C)C2	8.6%	-11.9%
COc1cccc(CN(C)CC(=O)N2CCN(S(=O)(=O)c3ccccc3)CC2)c1	-2.6%	-15.4%
O=C(C[C@H]1C[C@@H]2c3cc(NC(=O)c4cccnc4)ccc3O[C@@H]2[C@H](CO)O1)NCc1ccncc1	-7.3%	3.2%
CCOCCC(=O)Nc1ncc(S(=O)(=O)c2ccc([N+](=O)[O-])cc2)s1	-22.2%	-8.2%
CCCNC(=O)C1(C)CCN(Cc2cc(-c3ccccc3)on2)C1 (stereo not drawn)	7.4%[18.4 µM]	9.0%
CC(C)CC1C(=O)N(Cc2cn(CCC3OCCCO3)nn2)CCS(=O)(=O)N1Cc1ccc(-c2ccccc2)cc1 (stereo not drawn)	5.6%	?

# Random excerpt: two entries already listed
Molecule	RE007 growth inh	2A StopGo
CCCNC(=O)C1(C)CCN(Cc2cc(-c3ccccc3)on2)C1 (stereo not drawn)	7.4%[18.4 µM]	9.0%
CC(C)CC1C(=O)N(Cc2cn(CCC3OCCCO3)nn2)CCS(=O)(=O)N1Cc1ccc(-c2ccccc2)cc1 (stereo not drawn)	5.6%	?

# Bioassay records (PubChem)
